# Polio RdRp inh: poliovirus RNA polymerase inhibition. 0.66% of 150,000 active. P03300. poliovirus polymerase elongation, fluorescence polarization; hits give low values. % elongation, % (compound at 16.7 µg/mL); in the data active = % elongation below about 90%; note: some results filed as inactive read as strong as hits
# Target sequence (P03300 1749-2209 limits assumed): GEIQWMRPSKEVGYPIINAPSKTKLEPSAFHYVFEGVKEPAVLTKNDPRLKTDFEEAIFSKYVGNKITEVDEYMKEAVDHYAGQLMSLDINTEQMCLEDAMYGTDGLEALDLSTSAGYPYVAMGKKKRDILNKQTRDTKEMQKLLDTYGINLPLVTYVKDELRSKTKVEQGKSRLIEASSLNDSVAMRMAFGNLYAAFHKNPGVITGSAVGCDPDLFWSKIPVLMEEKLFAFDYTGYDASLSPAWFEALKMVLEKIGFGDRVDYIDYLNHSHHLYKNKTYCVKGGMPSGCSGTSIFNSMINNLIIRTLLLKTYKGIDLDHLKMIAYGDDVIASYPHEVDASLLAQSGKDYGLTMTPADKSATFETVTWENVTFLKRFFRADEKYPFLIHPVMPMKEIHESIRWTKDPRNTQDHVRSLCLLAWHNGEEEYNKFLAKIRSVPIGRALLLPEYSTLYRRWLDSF
# Polio RdRp inh intensity: second read-out of Polio RdRp inh, no call of its own (marks repeat the call); % elongation; measured here: total intensity read-out; formula for this scale not given here;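 total fluorescence in place of polarization; lower means less elongation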
# * hit, by the source's call. This is a subset (hit frequency here may not be typical).
cpd	molecule	Polio RdRp inh	Polio RdRp inh intensity
1	COc1ccc(NC(=O)CN2C(=O)COc3ccc(S(=O)(=O)N4CCOCC4)cc32)cc1	102.0	110.0
2	COc1cccc(CNC(=O)Cn2c(=O)cc(C(F)(F)F)c3c(C)nn(C)c32)c1OC	110.0	114.0
3	COc1ccc(-c2nn3c(-c4ccccc4)nnc3c3ccccc23)cc1	102.0	106.0
4	Cc1ccc(NC(=O)Cn2c(=O)n(CCCCC(=O)NCCc3ccccc3)c(=O)c3ccccc32)c(C)c1	107.0	110.0
5	O=C1CCc2cc(S(=O)(=O)NCc3ccccc3)cc3c2N1CC3	108.0	108.0
6	Cc1cc(C)c2c(CC(=O)N(Cc3ccc(N(C)C)cc3)Cc3ccco3)coc2c1	113.0	113.0
7	CN(C(=O)NCc1noc2ccccc12)c1cccc(Cl)c1	103.0	107.0
8	COc1cccc(-n2c(=O)c3c4c(sc3n(Cc3ccc(C)cc3)c2=O)CCCC4)c1	104.0	107.0

# (cont.)
cpd	molecule	Polio RdRp inh	Polio RdRp inh intensity
9	Cc1c(C(=O)OC2CCCCCC2)[nH]c2c1C(=O)CC(c1ccc(Cl)cc1)C2 (stereo not given)	105.0	107.0
10	O=C(Cn1cc(SCc2ccccc2)c2ccccc21)N1CCCCC1	115.0	114.0
11	COc1cccc(CNC(=O)C2CCN(Cc3cc4ccccc4n3Cc3ccc(C)cc3)CC2)c1	112.0	107.0
12	O=C(COc1ccc(Cl)cc1)Nc1nnc2n1CCS2	117.0	112.0
13	Cc1ccc(CNC(=O)Cn2cc(S(=O)(=O)Cc3ccccc3F)c3ccccc32)cc1	108.0	101.0
14	COc1ccc(C2=CC(c3ccccc3F)n3ncc(C(=O)Nc4ccc(C)cc4)c3N2)cc1 (stereo not given)	107.0	108.0
15	O=C1CS(=O)(=O)C2(C(=O)N(Cc3ccccc3Cl)c3ccccc32)N1c1ccc(F)cc1 (stereo not given)	103.0	106.0
16	Cc1cccc(N2CCN(C(=O)c3cc4ccc5cccnc5c4[nH]3)CC2)c1C	104.0	109.0

# The list continues:
cpd	molecule	Polio RdRp inh	Polio RdRp inh intensity
17	Cc1ccc(CNC(=O)c2nn(-c3ccc(Cl)cc3)nc2CO)cc1	107.0	111.0
18	Cc1ccc(C)c(N2CCN(C(=O)c3ccc(NC(=O)c4nsc5ccccc45)cc3)CC2)c1	113.0	110.0
19	CN1C(=O)C2(c3ccccc31)N(c1cccc(F)c1)C(=O)CS2(=O)=O (stereo not given)	110.0	102.0
20	COc1cccc(NC(=O)Nc2cc(-c3cn4cccnc4n3)ccc2OC)c1	104.0	108.0
21	Cc1cccc(C)c1NC(=O)Cn1nnc(C(=O)NCc2ccc(F)cc2)c1N	108.0	111.0
22	CCOc1ccc(C2CC(=O)Nc3cc4c(cc32)OCO4)cc1OC (stereo not given)	102.0	105.0
23	COc1ccc(NC(=O)Cn2nnc(-c3nc(-c4ccncc4)no3)c2N)cc1OC	114.0	114.0
24	Cc1ccc(S(=O)(=O)n2nc(-c3ccccc3)nc2NCc2ccccc2Cl)cc1	102.0	107.0

# Next part:
cpd	molecule	Polio RdRp inh	Polio RdRp inh intensity
25	COc1cccc(-c2nnc3n(CCc4ccccc4)c(=O)c4ccccc4n23)c1O	92.0	96.0
26	CN(Cc1ccccc1)C(=O)c1c[nH]c2ccc(S(=O)(=O)Nc3ccccc3F)cc2c1=O	107.0	107.0
27	CCOc1ccc(C(=O)Nc2cc(NC(=O)c3ccco3)ccc2OC)cc1Br	100.0	94.0
28	CCC(Sc1nc2ccccc2c2nc(CCc3c(C)n[nH]c3C)nn12)C(=O)Nc1ccccc1F (stereo not given)	110.0	111.0
29	COc1ccccc1NC(=O)Cn1c(=O)n(CCc2ccccc2)c(=O)c2sc3ccccc3c21	103.0	104.0
30	CCS(=O)(=O)CCSc1nc(-c2ccc(Br)cc2)cc(-c2ccccc2)c1C#N	97.0	104.0
31	CCOC(=O)c1cc(-c2ccc(F)cc2)n(CCC(=O)Nc2ccccc2OC)c1C	110.0	113.0
32	CC(C(=O)NCc1ccc(Cl)cc1)n1ccc2cc(S(=O)(=O)N3CCCCCC3)ccc21 (stereo not given)	115.0	112.0

# (more compounds)
cpd	molecule	Polio RdRp inh	Polio RdRp inh intensity
33	CC(C)Sc1ncc(Cl)c(C(=O)Nc2ccc(S(=O)(=O)Nc3ncccn3)cc2)n1	102.0	105.0
34	COc1cc(NC(=O)Cn2c(=O)n(CC3CCC(C(=O)NCCc4ccccc4)CC3)c(=O)c3ccccc32)cc(OC)c1 (stereo not given)	106.0	104.0
35	CCC1CN(C(=O)N2CCC(C(=O)NCCc3ccccc3Cl)CC2)c2cc(C)ccc2O1 (stereo not given)	110.0	109.0
36	CCc1cccc(C)c1Nc1c(-c2ccsc2)nc2ncccn12	113.0	120.0
37	CCOC(=O)c1ccc(NC(=O)c2csc3c2CCCC3)cc1	103.0	103.0
38	O=C(NCc1ccc(F)cc1)c1ccc2c(c1)nc1n2CCCCC1	105.0	111.0
39	CCCSc1nc2sc3c(c2c(=O)n1Cc1ccccc1)CC(C)(CC)OC3 (stereo not given)	105.0	104.0
40	COc1ccc(C2C(C(=O)Nc3ccccc3)=C(C)Nc3nc(-c4ccccc4Cl)nn32)cc1OC (stereo not given)	107.0	106.0

# Continuation.
cpd	molecule	Polio RdRp inh	Polio RdRp inh intensity
41	Cc1ccc(C)c(CN2C(=O)CSc3ccc(C(=O)NCc4ccc(F)cc4)cc32)c1	107.0	112.0
42	CCCOc1cccc(C(=O)Nc2ccc(-c3nc4ccccc4s3)c(Cl)c2)c1	101.0	103.0
43	O=C(CC1N=C2c3ccccc3N=C(SCc3ccccc3Cl)N2C1=O)NCCc1ccccc1 (stereo not given)	110.0	110.0
44	COC(=O)c1cc2sc(C)cc2n1Cc1ccc(F)cc1Cl	112.0	119.0
45	Cc1cc(NS(=O)(=O)c2ccc3nc(-c4ccccc4)[nH]c3c2)ccc1Br	114.0	113.0
46	Cc1cccc(N2CCN(C(=O)c3ccc4c(Cl)c5c(nc4c3)CCCC5)CC2)c1C	109.0	109.0
47	COc1ccc(NC(=O)c2ccco2)cc1NC(=O)COc1ccc(C)c(C)c1	105.0	110.0
48	CCc1ccc(NC(=O)CSc2nc3c([nH]c4ccccc43)c(=O)n2-c2cccc(OC)c2)cc1	104.0	108.0

# Further results follow.
cpd	molecule	Polio RdRp inh	Polio RdRp inh intensity
49	Cc1c(Cl)cccc1NC(=O)Cn1c(=O)n(Cc2ccco2)c(=O)c2sc3ccccc3c21	108.0	108.0
50	Cc1ccccc1Cn1c(=O)n(CCc2ccccc2)c(=O)c2ccccc21	107.0	110.0
51	CCOC(=O)CNc1nc2ccccc2n2c(C)nnc12	108.0	114.0
52	CC(C)(C)c1ccc(C(=O)NCCc2csc(-c3ccc(Cl)cc3)n2)cc1	110.0	110.0
53	CC1CCN(CCCNC(=O)CN2C(=O)CSc3ccc(S(=O)(=O)N4CCCCC4)cc32)CC1	106.0	99.0
54	Cc1ccc(-c2c(C(=O)N3CCN(c4cc(Cl)ccc4C)CC3)oc(=O)c3ccccc23)cc1	111.0	110.0
55	Cc1ccc(Cn2cccc(C(=O)Nc3ccc(C)c(Cl)c3)c2=O)cc1	109.0	110.0
56	O=C(CCn1cnc2onc(-c3ccc(F)cc3)c2c1=O)N1CCN(c2ccccc2)CC1	108.0	110.0

# (further entries)
cpd	molecule	Polio RdRp inh	Polio RdRp inh intensity
57	CCOc1ccc(C(=O)Nc2ccc3nc(SCC(=O)N4CCCC4)sc3c2)cc1	106.0	106.0
58	CCC1CN(S(=O)(=O)c2cc(-c3cc(C)no3)ccc2C)c2cc(C)ccc2O1 (stereo not given)	104.0	102.0
59	COc1ccc(NC(=O)C2CCCN(C(=O)c3cnn(-c4ccc(F)cc4)c3-n3cccc3)C2)cc1 (stereo not given)	110.0	108.0
60	Cc1ccc(-c2c(CN3CCN(c4cccc(C)c4C)CC3)csc2C)cc1	105.0	103.0
61	CCOc1ccc(CC(=O)NCCS(=O)(=O)N2CCN(c3ccc(OC)cc3)CC2)cc1	112.0	112.0
62	COc1ccc(NC(=O)Cn2c(=O)n(CCCC(=O)NCc3ccccc3OC)c(=O)c3ccccc32)cc1Cl	104.0	99.0
63	COc1cc(NC(=O)N2CCC(CN3CCCCCC3)CC2)cc(OC)c1OC	108.0	106.0
64	COCCCNC(=O)CC(c1cc(OC)c(OC)c(OC)c1)N1Cc2ccccc2C1=O (stereo not given)	106.0	111.0

# Five structures out of the list, ordered by formula weight, lowest first:
cpd	molecule	Polio RdRp inh	Polio RdRp inh intensity
60	Cc1ccc(-c2c(CN3CCN(c4cccc(C)c4C)CC3)csc2C)cc1	105.0	103.0
57	CCOc1ccc(C(=O)Nc2ccc3nc(SCC(=O)N4CCCC4)sc3c2)cc1	106.0	106.0
64	COCCCNC(=O)CC(c1cc(OC)c(OC)c(OC)c1)N1Cc2ccccc2C1=O (stereo not given)	106.0	111.0
59	COc1ccc(NC(=O)C2CCCN(C(=O)c3cnn(-c4ccc(F)cc4)c3-n3cccc3)C2)cc1 (stereo not given)	110.0	108.0
62	COc1ccc(NC(=O)Cn2c(=O)n(CCCC(=O)NCc3ccccc3OC)c(=O)c3ccccc32)cc1Cl	104.0	99.0

# Further structures
cpd	molecule	Polio RdRp inh	Polio RdRp inh intensity
65	Cc1ccccc1-c1nc(C(N)=O)c2c(n1)n(-c1ccc3c(c1)OCO3)c(=O)n2C	104.0	108.0
66	O=C(NCc1cccc(F)c1)C1CCN(C(=O)c2sccc2-n2cccc2)CC1	110.0	108.0
67	O=C(C1CCCN(S(=O)(=O)c2cccc3nonc23)C1)N1CCN(c2cccc(Cl)c2)CC1 (stereo not given)	107.0	111.0
68	Cc1ccc(Cl)cc1N1CCN(C(=O)CCS(=O)(=O)c2ccc3c(c2)oc(=O)n3C)CC1	101.0	106.0
69	Cc1ccccc1CCNC(=O)c1ccc2c(c1)c(C)c(C)n2Cc1ccccc1	100.0	97.0
70	Cc1cccc(CCNC(=O)CCc2c(C)nc3c4c(C)cc(C)nc4nn3c2C)c1	101.0	107.0
71	COc1cccc(-c2nnc(SCC(=O)NC3CCCCC3)o2)c1	88.0*	88.0*
72	CC(C(=O)Nc1ccc(F)c(Cl)c1)N1Cc2ccccc2C1=O (stereo not given)	116.0	102.0

# Single entries from the results shown:
# Polio RdRp inh intensity result of Cc1cccc(CCNC(=O)CCc2c(C)nc3c4c(C)cc(C)nc4nn3c2C)c1 is entered as 107.0
# Polio RdRp inh intensity result of O=C(C1CCCN(S(=O)(=O)c2cccc3nonc23)C1)N1CCN(c2cccc(Cl)c2)CC1 (stereo not given) is entered as 111.0
# Polio RdRp inh intensity result of Cc1ccccc1CCNC(=O)c1ccc2c(c1)c(C)c(C)n2Cc1ccccc1 is entered as 97.0
# Polio RdRp inh result of O=C(NCc1cccc(F)c1)C1CCN(C(=O)c2sccc2-n2cccc2)CC1 is entered as 110.0
# Polio RdRp inh intensity result of COc1cccc(-c2nnc(SCC(=O)NC3CCCCC3)o2)c1 is entered as 88.0*

# The list goes on:
cpd	molecule	Polio RdRp inh	Polio RdRp inh intensity
73	CCc1ccccc1Nc1ncnc2c1cnn2-c1ccc(C)cc1C	108.0	107.0
74	CCOCCc1nn2c(=O)cc(COC(=O)c3ccco3)nc2s1	103.0	107.0
75	CCn1c(=O)cc(SCC(=O)NCCc2ccc(Cl)cc2)c2ccccc21	109.0	109.0
76	COc1ccc(NC(=O)Cn2cc(S(=O)(=O)N3CCN(c4ccccc4F)CC3)c3ccccc3c2=O)cc1Cl	114.0	113.0
77	Cc1ccc(C)c(CN2C(=O)c3ccccc3S(=O)c3ccc(C(=O)N4CCN(c5cccc(Cl)c5)CC4)cc32)c1 (stereo not given)	112.0	108.0
78	COCCNC(=O)Cn1c(-c2cccs2)cc2cc(Cl)ccc21	103.0	95.0
79	COc1ccc(NC(=O)NCCc2c(C)nn(C)c2C)c(OC)c1	107.0	106.0
80	CCc1ccc(NC(=O)COC(=O)CCCC2=NS(=O)(=O)c3ccccc3N2)cc1	106.0	102.0

# Later entries:
cpd	molecule	Polio RdRp inh	Polio RdRp inh intensity
81	COc1cc(C(=O)NCC(c2cccs2)S(=O)(=O)c2ccc(F)cc2)cc(OC)c1OC (stereo not given)	108.0	101.0
82	CCc1ccccc1NC(=O)N1CCC(CN2CCc3ccccc3C2)CC1	113.0	110.0
83	CCCc1nnc(N2C(=O)c3oc4ccc(F)cc4c(=O)c3C2c2ccc(C(=O)OC)cc2)s1 (stereo not given)	107.0	110.0
84	CCCN(CCC)C(=O)Cn1c(SCc2cccc(C(F)(F)F)c2)nc2cccnc21	109.0	106.0
85	Cc1ccc(-c2cc(C(=O)NCc3ccccc3Cl)c3ccccc3n2)cc1C	105.0	106.0
86	CCOc1ccccc1NC(=O)c1c(NCc2cccs2)sc2c1CCC(C)C2 (stereo not given)	106.0	108.0
87	COc1cccc(NC(=O)Cn2nc3c4ccccc4n(Cc4cccc(F)c4)cc-3c2=O)c1	110.0	99.0
88	Cc1ccc(-n2nc(C)c(C(=O)NCCCN3CCN(c4ccccc4F)CC3)c2-n2cccc2)cc1	111.0	105.0
